Assay outcomes deposited in PubChem BioAssay by National Center for Advancing Translational Sciences (NCATS).
D2 potentiator = positive allosteric modulators of human D2 dopamine receptor. P14416. DiscoveRx D2 beta-arrestin cells, luminescence, 90 min; 100% = 57 uM dopamine signal. potentiation, % (no concentration beside the values). 360,000 tested, 0.23% active; active = potentiation of 50% or more; inconclusive = 30% to 50%; inactive = 30% or less;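 also: compound concentration not given in the record; tested on top of an EC20 dose of dopamine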
Target sequence (P14416 whole entry, looked up): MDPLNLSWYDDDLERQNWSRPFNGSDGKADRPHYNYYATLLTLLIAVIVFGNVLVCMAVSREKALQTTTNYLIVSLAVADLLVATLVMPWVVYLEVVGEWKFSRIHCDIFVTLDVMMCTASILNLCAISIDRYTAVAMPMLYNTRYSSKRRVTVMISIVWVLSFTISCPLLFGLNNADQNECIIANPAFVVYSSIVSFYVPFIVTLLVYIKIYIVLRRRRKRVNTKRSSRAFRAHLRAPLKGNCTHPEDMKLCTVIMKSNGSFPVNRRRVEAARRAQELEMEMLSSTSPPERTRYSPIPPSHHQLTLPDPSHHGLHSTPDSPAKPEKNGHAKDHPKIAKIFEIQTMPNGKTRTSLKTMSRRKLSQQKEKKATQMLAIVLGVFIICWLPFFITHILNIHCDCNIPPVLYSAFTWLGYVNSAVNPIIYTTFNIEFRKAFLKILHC
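PathHunter beta-arrestin assay in DiscoveRx D2 cells. Compounds were added with an EC20 of dopamine (50 nM final) for 90 min at 37 deg C. Luminescence was read 1 h after detection reagent, with 57 uM dopamine as the EC100 control.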
PINK1 modulator = modulators of PINK1 expression; PINK1 immunofluorescence, high-content cytometry, 24 h; Potency, µM (highest dose often 76.6 µM), for inactives: top-dose activation (PINK1 increase), usual class: activators; 410,000 tested, 0.2% active; AID 624263; active = well fitted activation curve with a large enough effect; inconclusive = small, poorly fitted or top-dose-only effect; inactive = flat fitted curve, though single readings scatter; cell line not stated here;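 also: potency is read from the fitted curve at half-maximal effect; % of control where 0% means no effect; nearly all actives have a fitted effect of over 65% in size; a mitochondrial uncoupler was the plate control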
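Decision-based qHTS: stable cells, 24 h exposure to five compound concentrations, CCCP as control. Fixed cells stained for PINK1 plus nuclear, mitochondrial and cell markers, cytometer read.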
CtBP-E1A inh = CtBP/E1A binding inhibition. AlphaScreen GST-E1A/His-CtBP binding, 1536-well; stronger effect = lower value; control for the full effect not named in the record. activity change, % (test concentration not listed). AID 651724. 340,000 tested, 0.49% active; in the data active means activity change below about -65%; inconclusive means about -30% to -65%; inactive means above about -30%; also: % is scaled to controls: 0 for no effect and ±100 for the full control effect; compound concentration not given in the record
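Homogeneous bead-based format: GST-tagged E1A captured on glutathione donor beads, His-tagged CtBP on nickel acceptor beads; compounds precede bead addition by 2 h at 37 °C.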
D2 agonist = human D2 receptor agonism in beta-arrestin assay; AID 624465; 360,000 tested, 0.084% active; DiscoveRx PathHunter D2 beta-arrestin, luminescence, 90 min; 100% = 57 uM dopamine signal; activation, % (test concentration not listed); in the data active = activation above about 40%; inconclusive = about 15% to 40%; inactive = below about 15%; also: compound concentration not given in the record; the text of the record calls up to 30% inactive
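Agonist mode: compounds alone added to overnight-plated D2 PathHunter cells for 90 min at 37 C, with 57 uM final dopamine (EC100) defining full response. Beta-arrestin recruitment detected by chemiluminescent reagent, read after 1 h at ambient temperature.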
TRPML1 agonist = activates the human TRPML1 channel. TRPML1-expressing cells, Ca2+ dye fluorescence, FDSS; host cell line not named in the record; reference of the full effect not given here. activation, % (concentration not given with the values). 410,000 tested, 0.12% active. AID 624414; in the data active = activation above about 50%; inconclusive = about 30% to 50%; inactive = below about 30%; also: 0% is about no effect; the text of the record puts the active cut at 80%
Target sequence (Q9GZU1 whole entry, looked up): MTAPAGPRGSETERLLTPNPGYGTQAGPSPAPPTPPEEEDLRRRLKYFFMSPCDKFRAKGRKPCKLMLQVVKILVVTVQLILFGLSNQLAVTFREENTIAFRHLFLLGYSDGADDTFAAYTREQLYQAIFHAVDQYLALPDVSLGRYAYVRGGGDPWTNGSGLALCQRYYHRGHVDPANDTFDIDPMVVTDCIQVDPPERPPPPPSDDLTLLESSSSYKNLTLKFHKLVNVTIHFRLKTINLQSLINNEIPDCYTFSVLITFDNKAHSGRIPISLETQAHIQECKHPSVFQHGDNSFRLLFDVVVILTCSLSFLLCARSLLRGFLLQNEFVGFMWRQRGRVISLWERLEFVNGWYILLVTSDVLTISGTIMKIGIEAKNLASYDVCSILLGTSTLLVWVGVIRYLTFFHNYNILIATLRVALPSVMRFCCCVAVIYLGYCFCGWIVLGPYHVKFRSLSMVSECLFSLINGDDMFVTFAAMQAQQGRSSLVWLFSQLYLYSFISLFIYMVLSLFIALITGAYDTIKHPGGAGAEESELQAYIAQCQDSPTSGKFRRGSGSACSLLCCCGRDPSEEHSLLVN
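Kinetic FDSS Ca2+ read in Tet-induced TRPML1-DL cells (ABD Ca8 dye plus quencher, 45-90 min RT loading): baseline, then compound, then 110 s agonist window; EC80 agonist 54-4 at 4uM final added afterwards for a 110 s antagonist window.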
Six1-Eya2 inh = Six1/Eya2 interaction inhibition | Q15475+O00167 | AlphaScreen GST-Six1/His-Eya2 binding, biochemical; stronger effect = lower value; control for the full effect not named in the record | activity change, % (no concentration beside the values) | 360,000 tested, 0.56% active; in the data active = activity change below about -65%; inconclusive = about -30% to -65%; inactive = above about -30%; also: % is scaled to controls: 0 for no effect and ±100 for the full control effect; compound concentration not given in the record
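AlphaScreen luminescence read after one hour at 37 °C in darkness. Pin-transferred compounds met GST-Six1 and His-Eya2 protein (5X stock 250 nM/500 nM) plus glutathione donor and Ni-chelate acceptor beads (5X, 50 ug/mL).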
The depositor's hits bear a star; ? = inconclusive; . = not tested or not shown; & = joins results of further samples; [ ] = another dose, or the depositor's remark.

Order of results – D2 potentiator, PINK1 modulator, CtBP-E1A inh, D2 agonist, TRPML1 agonist, Six1-Eya2 inh
> CCCNC(=O)COc1coc(CN2CCN(c3cccc(Cl)c3)CC2)cc1=O
→ -3, -0.5%, -14, -2.4, 0.0, -1
> CCc1ccc(-c2cc3c(=O)n(CC(=O)NCCCN4CCN(C)CC4)ncn3n2)cc1
→ -29, 3.2%, -3, 9.5, -0.2, 1
> COCCNc1nc(Oc2ccc(C(N)=O)cc2)c2sccc2n1
→ 0, 0.6%, 4, -3.5, -0.5, -6
> COc1ccc(CNC(=O)C[C@H]2C[C@H](C(=O)N3CCOCC3)[C@@]3(CCC4CCCC4)c4[nH]c5cc(-c6ccco6)ccc5c4CCN3C2=O)cc1OC
→ -9, 4.3%, -23, -3.3, -0.2, -17
> Cn1cnnc1SCC(=O)NNC(=O)COc1ccc(Cl)cc1
→ -2, 2.2%, 0, -0.9, 0.2, -1
> CCc1[nH]nc(C(=O)N2CCCC(CO)(Cc3ccc(F)cc3F)C2)c1C (stereo not given)
→ -10, -1.5%, 4, -4.4, 3.3, 0
> O=C(Cc1ccc2ccccc2c1)Nc1ccccc1Br
→ -3, 6.8%, 2, 2.4, 0.7, -3
> CC1CCCN(C(=O)Cn2cnc3c2c(=O)n(C)c(=O)n3C)C1 (stereo not given)
→ -7, 0.3%, 11, -2.4, 0.0, -1
> Cc1ccc(SCC(=O)NCc2ccncc2)cc1
→ -2, -0.7%, 10, -4.1, -0.5, 21
> O=C(c1cc(S(=O)(=O)N2CCOCC2)c(Cl)cc1Cl)N1CCCCC1CO (stereo not given)
→ -2, 2.9%, 4, -3.6, 1.7, 2
> O=S(=O)(c1ccc(F)cc1)N1CCN(C(=S)NCC2CCCO2)CC1 (stereo not given)
→ -22, -0.6%, -24, -2.1, 0.3, 6
> COc1cc(C(=O)NNC(=O)c2nn(C)c(=O)c3ccccc23)cc(OC)c1OC
→ -7, 0.9%, 11, -2.5, -0.4, 1
> CCn1cc(C(=O)N2CCCC2)c(=O)c2cc(S(=O)(=O)N3CCOCC3)ccc21
→ -14, ?, 1, -3.6, -0.1, 4
> C=CCOC(=O)c1sc(NC(=O)c2ccco2)nc1C
→ -16, 0.6%, -3, -1.9, 2.3, -1
> CCCCN(CCCC)C(=O)c1cc(Cl)ccc1[N+](=O)[O-]
→ -4, -1.0%, -19, -6.4, -0.1, 2
> O=[N+]([O-])c1cc(/C=N/O)ccc1Oc1ccccc1Cl
→ 1, 2.1%, -10, -4.1, 2.5, -8
> COc1ccc(OC)c(Nc2nc(-c3ccc(O)c(O)c3)cs2)c1
→ ?, 28%, ?, 4.9, 2.3, -29
> COc1ccc(C(=O)N=C2SC3CS(=O)(=O)CC3N2c2ccc(C(C)=O)cc2)cc1 (stereo not given)
→ -7, 1.5%, 4, -3.8, 0.2, -4
> CN(CC(=O)Nc1ccc(F)c(F)c1F)C(=O)C1CCCN1C(=O)c1cccs1 (stereo not given)
→ -14, 0.2%, -6, -0.9, -0.9, -7
> CCOC(=O)NC(=O)/C(C#N)=C(/C)N(C)C
→ 0, -0.6%, 8, 2.3, 0.6, 5
> Cc1cccc(NC(=O)CN(C)S(=O)(=O)c2ccc(Br)cc2)n1
→ -6, ?, 0, -0.5, 1.2, 22
> COC(=O)c1ccc(NC(=O)C(=O)c2c[nH]c3ccccc23)cc1
→ 0, -0.7%, ., 0.6, -0.7, -3
> Cc1cc(=O)[nH]c(N2CCN(C(=O)c3ccco3)CC2)n1
→ -1, -0.1%, -6, -1.6, 0.5, -3
> O=C(NC(=S)Nn1cnnc1)c1cccc(Br)c1
→ -2, -2.0%, 6, -4.6, 0.5, -9
> CCC1COCCS(=O)(=O)N1Cc1cccc(C(F)(F)F)c1 (stereo not given)
→ -4, 0.3%, -7, -1.2, 0.6&-0.9, 12
> CCN(CC)S(=O)(=O)c1cc(NC(=O)C(C)OC(=O)c2[nH]c(C)c(C(C)=O)c2C)ccc1C (stereo not given)
→ -44, 2.2%, -14, -0.2, 1.1, -25
> O=C(N/N=C/c1ccc(-c2ccccc2C(=O)O)o1)c1cccs1
→ -5, 0.5%, -22, 2.4, -0.6, -29
> O=C(c1cc(-c2ccc(Br)cc2)on1)N1CCc2ccccc2C1
→ -3, 17%, -9, -0.3, 1.1, 15
> Cc1cc(C)c2c(=O)[nH]c(SCC(=O)Nc3ccccc3)nc2n1
→ 7, -1.2%, -4, -2.2, -0.6, -5
> O=C(Nc1nc(-c2ccccn2)cs1)C1CC(=O)N(c2ccc3c(c2)OCCO3)C1 (stereo not given)
→ -15, 8.5%, 0, 0.7, 0.9, -86*
> COc1ccc(N2C(=O)NC(NS(=O)(=O)c3ccccc3)(C(F)(F)F)C2=O)cc1 (stereo not given)
→ -16, 0.6%, 15, -6.0, 0.6, 0
> O=C(NNC(=O)c1cccc(-n2cccc2)c1)c1ccccc1
→ -2, 7.2%, -11, -1.8, 1.9, -7
> COc1ccccc1CNC(=O)C1CCC(CNc2c(N3CCCCC3)c(=O)c2=O)CC1 (stereo not given)
→ -14, -0.4%, ., -4.9, -0.6, -19
> CCCCCc1ccc(-c2cn(Cc3ccc4ccccc4c3)nn2)cc1
→ 2, -0.5%, 0, -3.6, -0.1&-0.3, 33
> CC(C)N(Cc1nc(-c2ccc(Cl)cc2)no1)C(=O)c1cccs1
→ -9, 0.6%[38.3 µM], 11, -3.1, 3.1, 6
> CSc1nnc(-c2cnccn2)n1C
→ -2, 3.8%[38.3 µM], -4, -0.1, 0.7, 6
> Cc1ccccc1C(=O)NNS(=O)(=O)c1cccc([N+](=O)[O-])c1
→ -1, -0.3%, 9, 1.5, -0.3, 10
> O=C(NC(=O)c1ccccc1)OCC1CCCN2CCCCC12 (stereo not given)
→ -4, 1.6%, 1, 1.6, -0.5, -3
> Cc1ccc(C(=O)COc2nc(C)cc(C)c2C#N)cc1
→ -17, ?, 9, -3.5, 0.9, 4
> CCOC(=O)CN1C(=O)N[C@@H](c2ccco2)C(C(C)=O)=C1C
→ 2, -0.6%, 0, -0.1, 0.3, -3

Ordered by length of the SMILES (falling): 6 of the compounds above
Order of results – D2 potentiator, PINK1 modulator, CtBP-E1A inh, D2 agonist, TRPML1 agonist, Six1-Eya2 inh
> COc1ccccc1CNC(=O)C1CCC(CNc2c(N3CCCCC3)c(=O)c2=O)CC1 (stereo not given)
→ -14, -0.4%, ., -4.9, -0.6, -19
> CC(C)N(Cc1nc(-c2ccc(Cl)cc2)no1)C(=O)c1cccs1
→ -9, 0.6%[38.3 µM], 11, -3.1, 3.1, 6
> CCCCCc1ccc(-c2cn(Cc3ccc4ccccc4c3)nn2)cc1
→ 2, -0.5%, 0, -3.6, -0.1&-0.3, 33
> O=C(NNC(=O)c1cccc(-n2cccc2)c1)c1ccccc1
→ -2, 7.2%, -11, -1.8, 1.9, -7
> Cc1ccc(C(=O)COc2nc(C)cc(C)c2C#N)cc1
→ -17, ?, 9, -3.5, 0.9, 4
> CSc1nnc(-c2cnccn2)n1C
→ -2, 3.8%[38.3 µM], -4, -0.1, 0.7, 6

(next part)
Order of results – D2 potentiator, PINK1 modulator, CtBP-E1A inh, D2 agonist, TRPML1 agonist, Six1-Eya2 inh
> CC(C)N(Cc1ccccc1)CC(O)COc1ccc(S(=O)(=O)N2CCOCC2)cc1Cl (stereo not given)
→ -9, 2.1%, 9, -0.9, -0.3, 1
> COc1ccc(N2C(=O)CN(Cc3ccc(OC)c(OC)c3)C2=S)cc1
→ 4, 0.0%, 1, 8.0, 0.5, -3
> CC(C)C(=O)Nc1ccc2nn(-c3ccc(F)cc3)nc2c1
→ -16, 5.0%, ., -0.2, ., -4
> O=C(CSC1=N/C(=C/c2ccc(Cl)c(Cl)c2)C(=O)N1c1ccccc1F)NC1CC1
→ 15, 0.7%, 17, -4.9, -1.0, -5
> CCOc1ccc2nc(NC(=O)CSC3=NCCS3)sc2c1
→ -12, 2.3%, 0, -1.4, 1.1, 0
> O=C(NCC(c1cccnc1)N1CCN(c2ccc(F)cc2)CC1)c1ccc(F)cc1 (stereo not given)
→ -5, 1.6%, -1, 0.4, -1.5, 2
> Cc1noc(C)c1NC(=O)N(C)C[C@@H]1Oc2ccc(NC(=O)Cc3cn(C)c4ccccc34)cc2CC(=O)N([C@H](C)CO)C[C@@H]1C
→ -2, -0.1%, 0, 4.1, -0.4, 23
> COc1cc(C(=O)NCc2nnc(SCC(=O)N3CCC(C)CC3)o2)cc(OC)c1OC
→ -12, -1.5%, -2, -2.6, -0.6, 0
> COc1cccc(NC(=O)COC(=O)CCC(=O)c2cccs2)c1
→ -2, 0.9%, ., -3.3, -0.4, -3
> O=C(O)CNC(=O)c1ccc(N2CCOCC2)cc1[N+](=O)[O-]
→ -1, 0.5%, -9, -1.4, 0.5, -3
> Cc1ccc(N(C(=O)CNC(=O)c2ccco2)C(C(=O)NC2CCCC2)c2ccncc2)cc1C (stereo not given)
→ -12, 1.9%, 2, -1.1, -0.1, 3
> COc1ccc(C(C)=O)cc1COC(=O)CNC(=O)c1ccccc1F
→ -14, 5.9%, 0, -1.2, -0.1, 6
> CCN(C(=O)COC(=O)Cc1c[nH]c2ccccc12)c1c(N)n(Cc2ccccc2)c(=O)[nH]c1=O
→ -1, 2.6%, -12, -4.8, 0.7, 5
> CCCCc1ccc(-c2ccc(C)cc2O)nc1
→ 3, -1.9%, 39, 0.9, 1.8, 42
> Cc1ccc2oc(=O)cc(CN3CCN(C/C=C/c4ccccc4)CC3)c2c1
→ -22, 3.7%, 0, -3.1, 0.8, -7
> CN(Cc1ccccc1)c1ccc(C(CC(N)=O)NC(=O)Cc2ccc(Br)cc2)cc1[N+](=O)[O-] (stereo not given)
→ -23, -0.5%, -3, 3.4, -1.2, 0
> CN(C)C(CNC(=S)Nc1ccccc1)c1cccnc1 (stereo not given)
→ -13, 0.5%, 2, -1.2, 0.1, 6
> CC(C)(C)OC(=O)C[C@H]1C/C=C\C[C@@H](CC(=O)N(CCO)Cc2ccccc2)C(=O)NC[C@H](c2ccccc2)OC1=O
→ -9, -1.7%, 5, -0.8, -0.5, 4
> CCCn1nc(C(=O)OCC(=O)c2ccccc2)c2ccccc2c1=O
→ 1, -0.8%, 3, -3.9, 3.6, -3
> Fc1ccc(-c2ccc(CNCc3ccccn3)o2)cc1Cl
→ -17, -0.8%, ?, 2.8, -0.3, ?
> Cc1cc(C)cc(C(=O)Nc2ccc(N3CCCC3)cc2)c1
→ -14, 6.0%, -8, -2.2, -0.4, -22
> O=C(COC(=O)c1cccnc1Cl)c1ccc(Cl)cc1Cl
→ -11, -1.1%[38.3 µM], 9, -2.2, 0.6, 0
> CCN1CCN(CCNC(=O)CSCc2nc(-c3ccc(OC)c(OC)c3)oc2C)CC1
→ -10, -0.7%, -1, -0.5, -0.5, -2
> COC(=O)N(C)C[C@@H]1OCc2cnnn2CCCC(=O)N([C@H](C)CO)C[C@H]1C
→ -3, 2.5%, -2, -4.6, 0.5, 1

No enrichment for hits. Share with any hit: about 1.3%.
